Source: PubChem BioAssay
Menin MLL FP FL: menin-MLL binding inhibition, fluorescein peptide; Fluorescence polarization, fluorescein-MLL peptide displacement from menin; FP activity change, % at 61.4 µM; AID 1766; 290,000 tested, under 10 active; inconclusive = falling polarisation curve, or a change in total fluorescence; inactive = total fluorescence flat and polarisation flat or rising; no compound was filed as active; the % refers to the polarisation; negative = inhibition;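 note: % of control where 0% means no effect; inhibitors lower the polarisation; unlabelled MLL peptide was the positive control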
ClpP mod: qHTS Assay for Activators of ClpP; ATP-dependent Clp protease proteolytic subunit (Bacillus subtilis (strain 168)), P80244; purified B. subtilis ClpP, FRET peptide cleavage, 20 min; Potency, µM (highest dose often 57.5 µM), for the others: at the top dose activity change, negative = active; hit rate 1.9% among 340,000; AID 651965, 2013; active = well fitted falling curve with a large enough effect; inconclusive = small, poorly fitted or top-dose-only effect; inactive = no such curve, though single readings can be large or run the other way; note: potency is the fitted concentration of half-maximal effect; the source files actives as falling curves though it sought activators and does not explain the sign; nearly all actives have a fitted effect of over 65% in size; many hits overshoot -100%
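Purified B. subtilis ClpP, 10 microg/mL final in Tris/HCl pH8 with KCl, BSA, glycerol and Tween-20, cleaved an Abz/nitrotyrosine-quenched decapeptide. Fluorescence (ex 320, em 430) was read at 0 and 20 min at room temperature. Delta was normalized to 5.8 microM ADEP and DMSO/no-enzyme controls.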
TRPML1 inh: human mucolipin-1 channel inhibition; TRPML1-inducible cells, Ca2+ dye fluorescence, FDSS; stronger effect = lower value; inhibition of EC80 agonist-evoked calcium signal; hit rate 0.02% among 390,000; activity change, negative = inhibition, % (concentration not given with the values); Q9GZU1; AID 624415; in the data active means activity change below about -50%; inconclusive means about -30% to -50%; inactive means above about -30%;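 note: stimulus is agonist 54-4 at its EC80 concentration; % is set by controls: 0 for no effect and ±100 for the full control effect; compound concentration not given in the record; the text of the record puts the active cut at -80%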
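Tet-induced TRPML1-DL cells loaded with Ca8 no-wash calcium dye were read kinetically on FDSS. Compound addition was followed by EC80 agonist 54-4 (4 uM final); inhibition was read over 110 s.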
TRPV1 potentiator: potentiators of human vanilloid receptor 1 (TRPV1) | Q8NER1 | TRPV1-expressing cells, Fluo-8 calcium influx, capsaicin EC20 potentiation; host cell line not named in the record; control for the full effect not named in the record | hit rate 0.02% among 320,000 | potentiation, % at 8.33 µM; active means potentiation above 80%; inconclusive means 30% to 80%; inactive means below 30%; note: 0% is about no effect
Target sequence (Q8NER1 whole entry, looked up): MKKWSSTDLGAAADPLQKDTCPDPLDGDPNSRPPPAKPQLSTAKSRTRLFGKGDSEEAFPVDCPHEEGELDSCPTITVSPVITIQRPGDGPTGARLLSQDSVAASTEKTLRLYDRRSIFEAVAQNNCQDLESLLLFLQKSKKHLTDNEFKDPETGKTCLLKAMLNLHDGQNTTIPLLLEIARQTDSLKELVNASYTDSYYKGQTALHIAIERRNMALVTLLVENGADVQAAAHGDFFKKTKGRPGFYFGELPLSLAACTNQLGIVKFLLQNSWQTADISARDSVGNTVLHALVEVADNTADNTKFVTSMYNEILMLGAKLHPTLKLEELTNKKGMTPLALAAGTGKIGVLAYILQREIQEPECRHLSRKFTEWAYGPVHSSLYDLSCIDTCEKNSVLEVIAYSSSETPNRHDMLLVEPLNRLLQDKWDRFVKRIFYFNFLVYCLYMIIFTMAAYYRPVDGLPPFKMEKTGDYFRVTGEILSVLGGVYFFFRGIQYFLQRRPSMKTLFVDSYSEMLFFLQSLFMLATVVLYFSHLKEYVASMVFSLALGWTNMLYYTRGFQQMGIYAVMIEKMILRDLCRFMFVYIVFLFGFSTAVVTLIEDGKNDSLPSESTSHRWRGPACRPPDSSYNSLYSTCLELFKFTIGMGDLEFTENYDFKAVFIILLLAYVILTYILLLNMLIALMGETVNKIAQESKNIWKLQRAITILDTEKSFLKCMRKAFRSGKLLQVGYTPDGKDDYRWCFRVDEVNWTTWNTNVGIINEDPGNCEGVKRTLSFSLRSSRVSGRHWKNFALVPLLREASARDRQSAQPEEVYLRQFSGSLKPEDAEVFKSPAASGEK
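Fluo-8 calcium influx in TRPV1-expressing cells, kinetic read (ex 480/em 520 nm). Compound added and read 3 min for agonist activity, followed by capsaicin at EC20 final and 2 min further read for enhancement.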
TRPML1 ag: agonists of human TRPML1 channel; Q9GZU1; TRPML1-expressing cells, Ca2+ dye fluorescence, FDSS; host cell line not named in the record; reference of the full effect not given here; activation, % (concentration not given with the values); hit rate 0.12% among 410,000; AID 624414; in the data active = activation above about 50%; inconclusive = about 30% to 50%; inactive = below about 30%; note: 0% is about no effect; the text of the record puts the active cut at 80%
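TRPML1-DL cells, Tet-induced overnight (~16 h, 37 degrees C), loaded 45-90 min at room temperature with Ca8 no-wash calcium dye plus quencher. FDSS fluorescence: 10 s baseline, compound pin-transfer, 110 s agonist read, then EC80 54-4 (4uM final) and 110 s antagonist read.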
PINK1 modulator: changes PINK1 expression | hit rate 0.2% among 410,000 | AID 624263 | Potency, µM (titrated, usually from 76.6 µM), for the others: top-dose activation (PINK1 increase), usual class: activators | PINK1 immunofluorescence, high-content cytometry, 24 h; active = well fitted activation curve with a large enough effect; inconclusive = small, poorly fitted or top-dose-only effect; inactive = flat fitted curve, though single readings scatter; cell line not stated here;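 note: potency is the fitted concentration of half-maximal effect; % of control where 0% means no effect; nearly all actives have a fitted effect of over 65% in size; a mitochondrial uncoupler was the plate control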
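Cells are seeded, rested 12 hours, then given compound at five concentrations or DMSO for 24 hours. After fixation, blocking and antibody staining, PINK1 amount and mitochondrial localization are scored; CCCP serves as control.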
Sfp PPTase inh: inhibitors of Bacillus subtilis Sfp phosphopantetheinyl transferase; Q9F4F7; Biochemical Sfp PPTase activity, qHTS; Potency, µM, for the others: max response, negative = inhibition, actives largely listed as inhibitors; hit rate 3.5% among 310,000; active = well fitted inhibition curve with a large enough effect; inconclusive = small, poorly fitted or top-dose-only effect, or another doubt; inactive = no such curve, though single readings can be large or run the other way;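 note: the enzyme is Sfp with the accession as filed and its product quenches rhodamine fluorescence; potency is the fitted concentration of half-maximal effect; 0% = enzyme reaction without inhibitor and -100% = no enzyme wells; top concentration of the series not given in the record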
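After 15 min at room temperature with compound, 15 nM Sfp received 5 uM rhodamine-CoA plus 12.5 uM BHQ-2-ybbR (50 mM Hepes pH 7.6, 10 mM MgCl2). Rate came from the fluorescence difference over 30 min, ex 525/em 598 nm.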
* marks the source's active call; other numbers are inactive results; ? = inconclusive; / = no result given; & = joins results of further samples; [ ] = another dose, or the depositor's remark.

canonical_smiles,Menin MLL FP FL,ClpP mod,TRPML1 inh,TRPV1 potentiator,TRPML1 ag,PINK1 modulator,Sfp PPTase inh
CCCCCCCC(=O)OCC(COC(=O)CCCCCCC)OC(=O)CCCCCCC,-4.1,-1.5%,18,-7,-0.3,0.5%,11%
CCOc1cc(/C=N/NC(=O)COc2cccc(C)c2)ccc1OC(=O)c1cccs1,-3.1,-8.8%,-12,4,2.7,-3.8%[38.3 µM],-6%
Oc1ccccc1-c1nnc(COc2ccccc2)o1,4.2,-9.9%,-25,/,1.2,-0.7%,4%
C=CC[C@@H](CC(=O)NCCO)C(=O)N[C@@H](COC(=O)[C@@H](CC=C)CC(=O)OC(C)(C)C)Cc1c[nH]c2ccccc12,/,0.4%,16,/,-0.4,1.1%,/
O=C(Nc1ccc(-c2ccc([N+](=O)[O-])cc2)cc1)c1ccccc1F,-0.1,/,-2,3,0.5,8.3%,-9%
COc1cccc(NC(=O)CN(C)C(=O)c2cc(S(=O)(=O)N3CCCCCC3)ccc2OC)c1,/,-3.7%,9,4,-0.4,-0.9%,/
OCCN(Cc1cccnc1)Cc1ccccn1,/,-0.9%,-12,/,0.4,-5.2%,/
COc1ccccc1NC(=O)/C=C/c1ccc(OC)c(S(=O)(=O)N2CCOCC2)c1,-1.5,/,-11,-4,0.4,2.2%,-13%
CN1CCC(N(C)S(=O)(=O)c2ccc(F)cc2F)CC1,-15,/,-10,20,0.2,1.5%,9%
O=C(Nc1ccc(C(=O)N2CCOCC2)cc1)c1ccc([N+](=O)[O-])cc1,-1.6,/,-16,-2,0.0,2.4%,10%
COc1ccc(-c2nc3cnc(N(C)C)nc3n(C)c2=O)cc1,?,/,/,/,/,0.3%,14%
O=C(Nc1cnn(Cc2ccc(Cl)c(Cl)c2)c1)C12CC3CC(CC(C3)C1)C2,-2.6,-2.6%,27,7,3.8,11%,21%
COc1ccccc1C(=O)NCC1(c2ccccc2)CCCC1,5.3,-0.4%,6,-7,?,0.0%,2%
COc1cc(OC)c2ccc(=O)oc2c1C(CC(=O)N1CCCC1)c1ccc2c(c1)OCO2 (configuration not stated),?,-13%,3&-13,10,1.6&-0.1,2.4%,-9%&1%
Cc1cc(=O)oc2cc(OCC(=O)NCCCn3ccnc3)ccc12,0.3,?,-6,3,0.8,-0.8%,11%
COc1cccc(NC(=O)CN(C)C(=O)c2c(C)nn(CC(C)C)c2Cl)c1,/,2.6%,5,14,2.0,2.1%,/
Cc1ccc(NC(=S)NCCO)c(C)c1,-1.5,0.6%,0,-24,-0.2,-2.0%,-7%
CCCCS(=O)(=O)N1C2=NC(C(=O)OC)=C(C(=O)OC)[C@@H]3N(C)c4ccc(OC)cc4[C@]23C[C@H]1C(=O)OC,-3.5[11.7 µM],1.4%,-13,-18,-0.4,-0.3%,1%&4%
Cc1ccc(CNC(=O)c2ccc3c(c2)S(=O)(=O)c2ccccc2C3=O)o1,/,1.7%,-19,/,-0.1,0.3%,/
O=C(NNC(=O)c1ccccc1Br)c1ccccc1Cl,1.6,/,-6,-6,0.7,-0.4%,18%
COCCNc1nc(N)c([N+](=O)[O-])c(Nc2ccc(F)cc2)n1,-1.5,-2.4%,4,2,-1.9,3.3%,14%
COc1ccc(NCC(=O)N/N=C/C=C\c2ccccc2)cc1,-0.6,1.2%,7,3,0.0,1.9%,3%
O=C(CNC(=O)c1ccncc1)N/N=C/c1cccc([N+](=O)[O-])c1,-3.7,/,-2,16,-0.1,0.5%,10%
COc1cc(Cl)c(C)cc1NC(=O)CN1C(=O)C2CC=CCC2C1=O (configuration not stated),/,-2.6%,-22,/,1.9,-0.4%,/
COc1ccc(-c2n[nH]c3c2cnc2cc(OC)c(OC)cc23)cc1,/,-4.6%,-5,/,0.4,0.4%,/
Cc1[nH]n(C(C)(C)C)c(=O)c1Sc1ccccc1,0.7,-0.6%,-1,28,0.0,1.9%,-9%
O=S(=O)(O)c1ccc(SCc2ccccc2)nc1,/,-29%,7,/,0.0,2.5%,/
Cc1ccc2oc(=O)c3cnn(CC(=O)N4CCN(c5ccccc5F)CC4)c3c2c1,/,1.1%,25,/,-1.0,-1.2%,/
O=C(NCCCn1cccn1)C1CCC(=O)N(Cc2cccc(C(F)(F)F)c2)C1 (configuration not stated),/,1.0%,4,25,0.1,0.3%,10%
CCC(c1nnnn1Cc1ccc2c(c1)OCO2)N1CCN(c2ccc(F)cc2)CC1 (configuration not stated),3.0,-9.6%,-7,-9,1.7,-1.3%,2%
C=CCC[C@@H](Cc1ccc(F)cc1)C(=O)OC[C@@H](Cc1c[nH]c2ccccc12)NC(=O)[C@@H](CC=C)CC(=O)N(CCO)Cc1ccccc1,/,-1.6%,-8,/,0.4,0.5%,/
COc1ccc(NC(=O)c2ccc3snnc3c2)cc1OC,/,-0.9%,-23,/,0.7,-4.7%,/
O=C(Nc1ccc(Cl)cc1)c1ccc2c(c1)N(Cc1ccccc1)CCS2,/,4.1%,15,/,-0.1,1.7%,/
Cn1cccc1CNCc1ccccc1Cl,1.1,-0.1%,39,-2,1.3,1.3%[38.3 µM],2%
CCOc1ccccc1/C=C(\C#N)C1=CCCC1,-1.9,/,27,-13,1.7,-1.7%,14%
O=C(CC(=O)NC1CCCCC1)N/N=C/c1ccccc1Cl,4.2,0.8%,3,-1,0.3,19%,11%
COc1ccccc1NC(=O)COC(=O)c1cc2c(s1)CCC2,/,/,56,-6,5.3,3.0%,/
COC(=O)c1cc(C)nc(Nc2nc(C(N)Cc3ccc(Cl)cc3)cs2)n1 (configuration not stated),/,-2.9%,/,/,0.9,1.5%,/
Cc1ccc(C(=O)NCC(=O)NC23CC4CC(CC(C4)C2)C3)cc1,/,-4.6%,1,25,0.0,-1.4%,5%
CCOC(=O)c1ccc(NC(=O)c2nc[nH]c2C(=O)N2CCC(C)CC2)cc1,3.1,0.8%,36,-8,1.5,5.4%,3%
Cn1nc(C(=O)NCCc2ccc3c(c2)OCCO3)c2ccccc2c1=O,/,0.7%,-14,6,0.1,1.2%,/
O=S(=O)(c1ccc(NC2CCCCC2)cc1)N1CCOCC1,5.0,-5.5%,0,-11,-1.4,-0.3%,18%
Cc1ccc(N2CCN(CC(O)COC3CCCCC3)CC2)cc1 (configuration not stated),2.1,-1.3%,9,5,-0.1,4.8%,11%
CC(Sc1nc(N)cc(=O)[nH]1)C(=O)NCC(=O)Nc1ccc(F)c(F)c1F (configuration not stated),/,-1.5%,-23,-5,2.1,-0.1%,/
Cc1nnc(NC(=O)CSc2nnc(Cc3cccn3C)n2C)s1,1.9,-4.1%,6,3,-0.3,-2.1%,19%
O=C(c1ccc2c3n(nc2c1)-c1ccccc1CO3)N1CCCCC1,0.6,-9.1%,-7,-25,-0.4,-1.4%,6%
Cc1ccc(C(=O)/C=C/Nc2cccc(O)c2)cc1,3.6,-2.9%,27,-7,1.3,/,-1%
COc1ccc2c(Sc3ccc(C)cc3)c(C(=O)NCC(C)c3ccccc3)[nH]c2c1 (configuration not stated),/,-0.9%,-2,/,0.6,1.7%,/
CCN(CC)CCNC(=O)c1ccc(NC(=O)/C=C/c2ccc3ccccc3n2)cc1,/,0.0%,-8,-5,-0.3,3.1%,4%
COc1ccc2c(Sc3ccccc3)c(C(=O)N3CCC(C)CC3)[nH]c2c1,/,1.2%,-10,/,0.1,3.1%,/
CC(=O)c1c(O)c2ccccc2n(C2CCCCC2)c1=O,0.2,-6.5%,-30,-2,-0.4,0.8%,?
Cc1cc(=O)[nH]c(SCC(=O)NN(c2ccccc2)c2ccccc2)n1,2.6,0.2%,-8,6,0.4,1.1%,9%
CC(C)N1C(=O)S/C(=C/c2cccnc2)C1=O,6.0,0.0%,0,-12,0.0,14%,11%
Cc1cccn2c(=O)c3cc(C(=O)NCCCOC(C)C)sc3nc12,2.4,/,-8,5,-1.1,2.3%,26%
Cc1nnc(N2CCC(C(=O)NC3CCCCC3)CC2)c2nn(-c3ccccc3)c(C)c12,/,-8.7%,-58*,/,1.7,1.8%,/
CCOC1=NC(=C(c2ccccc2)c2ccccc2)OC1=O,/,/,8,/,-0.6,5.0%,/
COc1cccc(CC(=O)Nc2nc(-c3ccc(F)c(F)c3)cs2)c1,7.2,/,-12,2,1.7,3.6%,4%
CC1C(=O)N(Cc2cccc(F)c2)c2ccccc2N1C(=O)c1ccccc1 (configuration not stated),0.3,1.4%,-5,-17,-0.1,2.6%,-12%
CC(=O)Nc1cccc(NC(=O)C2CCCN2C(=O)Nc2ccc(C)cc2)c1 (configuration not stated),-3.3,1.3%,-5,-9,-0.8,-0.1%,15%
CN(C(=O)COC(=O)c1ccc(-c2ccc(O)cc2)cc1)C1CCS(=O)(=O)C1 (configuration not stated),-1.5,-5.8%,/,-1,/,3.5%,21%
O=C1NC(=O)C2(COC3(CCCC3)OC2)S1,0.5,0.4%,-25,-3,0.5,-2.0%,24%
